High-throughput results: PubChem BioAssay, National Center for Advancing Translational Sciences (NCATS)
AmpC nodet inh – blocks E. coli AmpC beta-lactamase in absence of detergent | P00811 | AID 585 | actives 1.8% (n = 71,000) | AmpC nitrocefin hydrolysis, absorbance 480 nm, no detergent; potencies from a single point are estimates | Potency, µM (titrated, usually from 28.7 µM), for inactives: at the highest dose activity change, negative = inhibition; active = falling curve, for most hits resting on a single point; inconclusive = weak or doubtful change; inactive = flat or rising curve; note: % of control where 0% means no effect; about half of the hits show no inhibition at the top dose; a quarter of the inactives give rising signals
Target sequence (P00811 whole entry, looked up): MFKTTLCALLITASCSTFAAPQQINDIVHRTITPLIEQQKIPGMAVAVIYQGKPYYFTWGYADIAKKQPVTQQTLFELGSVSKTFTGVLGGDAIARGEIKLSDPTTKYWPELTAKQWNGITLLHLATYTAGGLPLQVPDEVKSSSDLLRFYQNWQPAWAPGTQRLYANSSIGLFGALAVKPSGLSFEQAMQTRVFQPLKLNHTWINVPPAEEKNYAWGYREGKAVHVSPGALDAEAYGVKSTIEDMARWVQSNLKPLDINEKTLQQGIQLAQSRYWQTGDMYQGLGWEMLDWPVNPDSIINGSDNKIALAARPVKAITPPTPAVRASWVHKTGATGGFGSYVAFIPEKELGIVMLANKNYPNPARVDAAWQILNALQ
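Enzyme, pH 7.0 phosphate. Compound titrations were pre-incubated with AmpC for 15 min at room temperature before nitrocefin (stock 800 uM) addition; product formation was recorded at 480 nm every 20 s for 4 min.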
The depositor's hits bear a star; [ ] = another dose, or the depositor's remark. Potency is the fitted concentration of half-maximal effect. These rows are one share of the data, so the mix of outcomes need not match the whole.

The first five entries (preview)
SMILES	AmpC nodet inh
CC1(C)Cc2c(sc3nc(SCC(=O)N4CCOCC4)nc(N)c23)CO1	25.1%
Oc1cc(O)c2c(c1)O[C@H](c1ccc(O)c(O)c1)[C@H](O)C2	-4.7%[12.8 µM]
CN(C)CCNC(=O)c1ccc(CS(=O)(=O)c2c(Cl)cccc2Cl)o1	9.9%
COc1ccc(CCNC(=O)c2c(-c3ccccc3)noc2C)cc1OC	26.2%
COc1cc(C(=O)N(Cc2ccco2)Cc2cc3ccccc3[nH]c2=O)cc(OC)c1OC	35.5%

This part in full, from the first entry:
SMILES	AmpC nodet inh
CC1(C)Cc2c(sc3nc(SCC(=O)N4CCOCC4)nc(N)c23)CO1	25.1%
Oc1cc(O)c2c(c1)O[C@H](c1ccc(O)c(O)c1)[C@H](O)C2	-4.7%[12.8 µM]
CN(C)CCNC(=O)c1ccc(CS(=O)(=O)c2c(Cl)cccc2Cl)o1	9.9%
COc1ccc(CCNC(=O)c2c(-c3ccccc3)noc2C)cc1OC	26.2%
COc1cc(C(=O)N(Cc2ccco2)Cc2cc3ccccc3[nH]c2=O)cc(OC)c1OC	35.5%
O=S(=O)(c1ccc2ccccc2c1)N1CCCOC1	7.3%
Cc1ccc(C)c(Cn2nnc3c(=O)[nH]c(C(=O)NCC4CCCO4)nc32)c1 (centres undefined)	4.0%
Cn1nc(CC(=O)Nc2ccc3c(c2)OCCO3)c2ccccc2c1=O	-9.2%
CCOC(=O)N1CCN(C(=O)C2CCCN(c3nc4ccc(OCC)cc4s3)C2)CC1 (centres undefined)	143.4%
Cc1ccc(Br)cc1	-8.8%
Cc1cc(NC(=O)CSc2nc3c(c(-c4cccnc4)c2C#N)CCC3)no1	-3.5%
CCCCCCN(C(=O)CCCCCN1C(=O)NC(C2CC2)C(C(=O)OCc2ccccc2)=C1C)C(C(=O)NCCCC)c1ccc(OCC(=O)OC)c(C(=O)OC)c1 (centres undefined)	107.0%
COc1ccc2c(c1)cc(C)c1nnc(SCC(=O)N3CCN(C(=O)c4ccco4)CC3)n12	141.0%
CS(=O)(=O)N(CC(=O)Nc1cccc(F)c1)Cc1ccccc1	2.9%
O=C(Nc1cccc(Cn2cccn2)c1)c1cc2c(s1)CCCC2	-13.0%
NC(=O)C1(N2CCCCC2)CCN(C(=O)CSc2nc(C(F)(F)F)cc(=O)[nH]2)CC1	0.2%
CN1C(=O)Cn2c1nc1ccccc12	-10.9%
O=S(=O)(Nc1cccnc1)c1cccc2cccnc12	-9.5%
CCCCOC(=O)Nc1cccc(C(C)=O)c1	-2.4%
Nc1c(C(=O)Nc2ccc(F)cc2)sc2nc(-c3ccco3)ccc12	-3.8%
COc1ccc(NC(=O)C2C3CCC(C3)C2C(=O)O)cc1OC (centres undefined)	-10.1%
O=P(c1ccccc1)(c1ccccc1)N1CC2(CC2)CC(O)(c2ccccc2)C1 (centres undefined)	87.0%
CCN1CCN(C(=O)COc2cc(=O)n(CC)c3ccccc23)CC1	0.9%
c1ccc(Cn2nnnc2CN2CCN(c3ncccn3)CC2)cc1	42.2%
COc1ccc(NC(=O)c2ccccc2NC(=O)C2CCCO2)cc1 (centres undefined)	0.4%

Individual results from the results shown:
Reading for O=S(=O)(Nc1cccnc1)c1cccc2cccnc12 in AmpC nodet inh: -9.5%
Reading for COc1ccc(NC(=O)C2C3CCC(C3)C2C(=O)O)cc1OC (centres undefined) in AmpC nodet inh: -10.1%

Carrying on:
SMILES	AmpC nodet inh
Cc1cc(-c2ccccc2)n(-c2ccc(C(=O)N3CCN(c4ncccn4)CC3)cc2)n1	124.7%
COCc1[nH]nc2c1C(c1cc(OC)c(O)c(OC)c1)C(C#N)=C(N)O2 (centres undefined)	-0.5%
CC1CCCC(NS(=O)(=O)c2ccc3c(c2)OCCO3)C1C (centres undefined)	-0.5%
Cc1noc(C)c1COC(=O)c1cc(C)n(-c2ccccc2)c1C	45.7%
COc1cc2cc(C(c3nnnn3C3CCCCC3)N(C)C3CCCCC3)c(=O)[nH]c2cc1OC (centres undefined)	104.9%
CN1CCc2cccc3c2[C@@H]1Cc1ccc(O)c(O)c1-3	-4.5%
CN(C(=O)C1CCOC1)c1nnc(-c2cnccn2)s1 (centres undefined)	5.2%
FC(F)(F)c1cc(NC(=S)N2c3ccccc3-n3cccc3[C@H]2c2cccnc2)cc(C(F)(F)F)c1	6.7%[5.75 µM]
O=C(NCc1ccc(Cl)cc1Cl)c1ccccn1	10.3%
CCOC(=O)c1c(NC(=O)C2CCCN2S(=O)(=O)c2cccc3nsnc23)sc(C)c1C (centres undefined)	4.2%
CC1(C)CC(=O)CC(C2(O)C(=O)N(Cc3ccccc3)c3ccccc32)O1 (centres undefined)	31.4%
COc1ccccc1NS(=O)(=O)CC12CCC(CC1=O)C2(C)C (centres undefined)	12.5%
CCn1c(=O)cc(SCC(=O)Nc2ccccc2N2CCN(C)CC2)c2ccccc21	67.6%
O=C(CSc1nnc2c3cc(F)ccc3nc(-c3ccccc3)n12)N1CCOCC1	-15.0%
CCOC(=O)c1cccc(NC(=O)C2CCN(S(=O)(=O)c3cnc[nH]3)CC2)c1	12.1%
CC1(C)NC(=O)N(CC(O)COc2ccccc2C(=O)N2CCCCC2)C1=O (centres undefined)	18.6%
CCOC(=O)N1CCC(NC(=O)CC(NS(=O)(=O)c2ccc(C)cc2)c2ccco2)CC1 (centres undefined)	52.9%
CC(=O)Nc1cccc(N2CCCC2=O)c1	-0.6%
CC(C)(C)c1cc(NC(=O)c2cccnc2)no1	2.7%
CCOc1ccc(NC(=O)COC(=O)Cn2cnnn2)cc1OCC	-1.2%
CCOC(=O)c1ccc(NC(=O)Nc2cc(C)on2)cc1	-13.4%
O=C(Nc1ccccc1C(=O)N1CCOCC1)C1COc2ccccc2O1 (centres undefined)	-4.6%
O=C(Nc1ccccc1Cl)c1ccc(S(=O)(=O)N2CCOCC2)cc1	11.7%
O=C(Nc1ccc(N2CCOCC2)c(Cl)c1)C1CCCCC1	22.0%
COCCn1c(=O)c(-c2ccc(Cl)cc2)nc2cnc(N3CCOCC3)nc21	7.7%

Further records.
SMILES	AmpC nodet inh
CCCCN(C)CCCNC(=O)c1ccc2c(c1)NC(=O)C(N1CCOCC1)S2 (centres undefined)	-18.7%
O=C(c1cccc(C(=O)N2CCN(c3ncccn3)CC2)c1)N1CCN(c2ncccn2)CC1	41.7%
COC(=O)Cc1csc(Nc2c(C)n(C)n(-c3ccccc3)c2=O)n1	7.8%
FC(F)(F)c1cccnc1N1CCN(c2ncnc3nc[nH]c23)CC1	1.8%
COc1cccc(Oc2ccc(N)cn2)c1	3.3%
CC(C)CC(=O)NC1(C(F)(F)F)C(=O)Nc2c1c(=O)[nH]c(=O)n2Cc1ccco1 (centres undefined)	-6.6%
CC[C@H](CO)NC(=O)[C@@H]1C=C2c3cccc4[nH]cc(c34)C[C@@H]2N(C)C1	-7.7%
CNC(=O)N(C1=NCC(C)(C)S1)c1ccc(F)c(Cl)c1	114.9%
COC(=O)c1ccc(NC(=O)C2CCCN2S(=O)(=O)c2ccc(C)cc2)cc1 (centres undefined)	27.6%
O=C1NC(Nc2ccccn2)(C(F)(F)F)C(=O)N1c1ccc(F)cc1 (centres undefined)	-1.5%
COCCNc1nc(C(C)(C)C)nc2c1nnn2Cc1ccccc1Cl	5.8%
Cc1cc(S(=O)(=O)N2CCN(c3ccc(F)cc3)CC2)c(C)s1	2.2%
CCn1c(C)cc2c(c1=O)C(c1ccncc1)C(C#N)=C(N)O2 (centres undefined)	-9.0%
COc1ccc(C(=O)N2CCC[C@@]3(CCN(c4ccncc4)C3)C2)cc1	-0.2%
COCC(=O)Nc1cc(C)c2c(=O)oc3ccccc3c2n1	84.9%
CC(C)(C)N1C(=O)c2ccc(C(=O)Nc3nccs3)cc2C1=O	2.0%
Cc1cc(NC(=O)c2cc3n(n2)C(C(F)(F)F)CC(c2ccc(Cl)c(Cl)c2)N3)no1 (centres undefined)	8.8%
COc1ccc(/C(O)=C2\C(=O)C(=O)N(CC3CCCO3)C2c2cc(OC)ccc2OC)cc1 (centres undefined)	5.9%
Cn1c(=O)c2c(nc(SCC(=O)N3CCc4ccccc43)n2Cc2ccccc2)n(C)c1=O	60.2%
CCOC(=O)c1ccc(Nc2nnc(C(C)(C)C)c(=O)[nH]2)cc1	6.9%
O=c1[nH]c(CS(=O)(=O)c2ccccc2)nc2ccccc12	-4.6%
O=C(c1cccc(F)c1)N1CCC2(CCN(Cc3ccccc3)CC2)CC1	11.1%
CC(C)=CCCC(C)NC(=O)NC1CCCCC1 (centres undefined)	6.3%
C[C@@H]1O[C@@H](O[C@H]2C[C@@H](O)[C@]3(CO)[C@@H]4[C@@H](O)C[C@]5(C)[C@H]([C@@H]6COC(=O)C6)CC[C@@]5(O)[C@H]4CC[C@@]3(O)C2)[C@H](O)[C@H](O)[C@@H]1O	7.3%
CCOC(=O)CC(=O)CSc1nc2nc(C)cc(C)n2n1	-10.9%

Remaining list, next part.
SMILES	AmpC nodet inh
Cc1ccc(NC(=O)CSCc2c(C)noc2C)cc1C	-0.3%
O=C(Nc1cc(C(F)(F)F)ccc1N1CCOCC1)C1Cc2ccccc2CN1C(=O)c1ccco1 (centres undefined)	106.1%
Cc1noc(C)c1COC(=O)COc1cccc2c1OC(C)(C)C2	34.8%
O=C1c2ccccc2C(=O)N1CCC(=O)N1CCCc2ccccc21	12.8%
Cc1cc(C)c2c(=O)n(CC(=O)N3CCC(Cc4ccccc4)CC3)sc2n1	39.9%
COc1cccc(CN2CCN(c3cccc(C(F)(F)F)c3)CC2)c1OC	49.0%
CCOC(=O)c1cccc(NS(=O)(=O)c2c(C)[nH]c(=O)[nH]c2=O)c1	-9.4%
CC(=O)Nc1ccccc1OCc1nnc(-c2cccs2)o1	-6.3%
O=C(c1cc(-c2cccs2)on1)N1CCCc2ccccc21	-3.9%
O=C(CCN1CCCCC1)NCNC(=O)CCN1CCCCC1	2.2%
Cc1cc(C)n2c(SCc3c(C)noc3C)nnc2n1	4.9%
COC(=O)N(c1ccccc1)P1(=S)OCCO1	0.6%
O=C(NCc1cccs1)N[C@@H](Cc1ccccc1)C(=O)O	-0.6%
CC1=C2[C@@H]3OC(=O)[C@H](C)[C@H]3CC[C@@]2(C)C=CC1=O	-6.0%
O=C(COC(=O)C1CC1)c1c[nH]c2ccccc12	84.2%
O=C(CSCc1ccco1)c1ccc(Cl)s1	10µM*
Cc1cc(C)nc(N2CCCC(C(=O)Nc3cc(F)ccc3C)C2)n1 (centres undefined)	30.2%
C=CCOc1c(Cl)cc(/C=N/O)cc1OC	-8.0%
O=C(NCc1ccc(Cl)cc1)c1cc(-c2cccs2)on1	7.94µM*
CCCOc1ccc2c3c(c(=O)oc2c1)CCCC3	8.9%
C/C(=C1/SC(N2CCOCC2)=NC1=O)c1ccc(Br)cc1	-0.7%
CC(C)N(Cc1nc(-c2ccccc2)no1)C(=O)C(C)(C)C	27.0%
Cc1c(S(=O)(=O)N2CCN(c3cccc(C(F)(F)F)c3)CC2)c(=O)n(C)c(=O)n1C	17.8%
Cc1noc(C)c1-c1nc(NC2CCNCC2)c2ccccc2n1	9.4%
CC(Sc1ccc(Br)cc1)C(N)=O (centres undefined)	6.0%

Arranged by count of non-hydrogen atoms (lowest first): part of the list above.
SMILES	AmpC nodet inh
COC(=O)N(c1ccccc1)P1(=S)OCCO1	0.6%
Cc1noc(C)c1-c1nc(NC2CCNCC2)c2ccccc2n1	9.4%
O=C(Nc1cc(C(F)(F)F)ccc1N1CCOCC1)C1Cc2ccccc2CN1C(=O)c1ccco1 (centres undefined)	106.1%

Entries above with a COOH group, in the order listed:
SMILES	AmpC nodet inh
COc1ccc(NC(=O)C2C3CCC(C3)C2C(=O)O)cc1OC (centres undefined)	-10.1%
O=C(NCc1cccs1)N[C@@H](Cc1ccccc1)C(=O)O	-0.6%

Continuation.
SMILES	AmpC nodet inh
Fc1cccc(CN2CCN(c3ncccn3)CC2)c1	12.2%
NC(=O)c1ccccc1O	-10.1%
CC(C)N(Cc1ccccc1)S(=O)(=O)c1n[nH]c(C(C)(C)C)n1	-0.3%[5.75 µM]
COc1ccc(Cc2nnc(NC(=O)Cc3cccs3)s2)cc1	12.6µM*
c1ccc(C(CCN2CC3CCC(CC3)C2)c2ccccc2)cc1	9.4%[5.75 µM]
CC1=C(CC(=O)O)c2cc(F)ccc2/C1=C\c1ccc(S(C)(=O)=O)cc1	-2.8%
Cc1ccc(-c2nc3ccccc3c(=O)n2CCCN2CCOCC2)cc1	37.3%
CCC(=O)N1CCCc2cc(S(=O)(=O)NCc3cccs3)ccc21	-3.0%
CN(C)CCNC(=O)C(C(=O)c1ccccc1)n1ccccc1=O (centres undefined)	-2.0%
CC1=CC(=C2C(=O)NC(=O)NC2=O)C=C(C(F)(F)F)N1C(C)C	-1.7%
O=c1c2cc(N3CCOCC3)ccc2[nH]c(=S)n1CCCN1CCCCCC1	34.9%
O=c1c(-c2cccs2)nc2cnc(Oc3cccc(Cl)c3)nc2n1C1CC1	6.4%
O[C@@H](c1cc(-c2ccc(Cl)cc2)nc2ccccc12)[C@@H]1CCCCN1	16.5%[5.75 µM]
Cc1ccccc1CN1C(=O)CSc2ccc(C(=O)N3CCOCC3)cc21	53.5%
O=C(CC1OC(=O)c2ccccc21)Nc1ccccc1N1CCOCC1 (centres undefined)	8.4%
CCCNc1nc2c(c(=O)n(C)c(=O)n2C)n1Cc1cccc(C)c1	57.2%
COc1ccc(CCNC(=O)CCN2C(=O)C3CC=CCC3C2=O)cc1OC (centres undefined)	14.3%
CC(CC(=O)Nc1ccncc1)c1ccccc1 (centres undefined)	8.4%
CCSc1nnc(Cn2c(=O)sc3ccccc32)n1-c1ccccc1C	79.1%
CC1(C(=O)NC2CCCC2)CCC(=O)N1Cc1ccccc1 (centres undefined)	-3.3%
O=C(O)CCn1cnc2ccccc2c1=O	-3.5%
Cc1ccc(-c2csc3nnc(SCC(=O)N4CCN(Cc5ccccc5)CC4)n23)cc1	119.0%
O=C(Nc1ccc(N2CCN(Cc3ccccc3)CC2)cc1)c1ncn[nH]1	16.9%
